DUX4 txn inh – inhibitors of DUX4-driven ZSCAN4 reporter expression, primary screen, 293T cells, Gaussia and Italica luciferase; 293T-iDUX4 ZSCAN4-Gaussia luciferase reporter, 24 h; hits give low values; activity change, negative = inhibition, % (test concentration not listed); 37,000 compounds, 0.8% hits; AID 1224904, 2016;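 active means -10% or lower and over 25 points stronger than a control reporter; inconclusive means -10% or lower with a smaller gap; inactive means above -10%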;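 further: 0% = median of neutral control wells and -100% = median of positive control wells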
DUX4 txn inh difference – second read-out of DUX4 txn inh, no call of its own (marks repeat the call); Gaussia minus Italica difference, %; measured here: selective DUX4 reporter inhibition;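 worked out from the two reporters; negative = selective loss of the DUX4 reporter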
DUX4 txn inh control – further read-out of DUX4 txn inh, marked with its call; activity change, negative = inhibition, %; measured here: Italica tet-on control reporter;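 0 = neutral control and -100 = positive control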
* = called active by the depositor; u = inconclusive; x = not tested or not shown; & = joins results of further samples. This is a subset. The share of hits here may be higher or lower than overall.

SMILES	DUX4 txn inh	DUX4 txn inh difference	DUX4 txn inh control
O=C(C[C@@H]1CC[C@H]2[C@@H](COC[C@@H](O)CN2Cc2ccc3c(c2)OCO3)O1)N1CCCCC1	-9	-15	6.0
COc1ccc(NC(=O)Nc2ccc3c(c2)[C@@H]2C[C@@H](CC(=O)NCC4CC4)O[C@@H](CO)[C@@H]2O3)cc1	0	-1	1.0
COc1ccc2c3c([nH]c2c1)[C@@H](CO)NCC31CN(C(=O)Nc2ccc3c(c2)OCO3)C1	19	5	14
COC(=O)[C@H]1[C@H](CO)[C@H]2Cn3c(ccc(/C=C/c4ccccc4)c3=O)[C@H]2N1CC1CCCCC1	u	x	x
COc1ccc(-c2ccc([C@@H]3[C@H](C#N)N(C(=O)C4CC4)[C@H]3CO)cc2)cc1	-5	1	-5.3
CN1c2ccc(-c3cccc(F)c3)cc2[C@@H]2[C@@H](CCN2C(=O)c2ccccc2F)[C@H]1CO	2	0	2.5
COc1ccccc1NC(=O)N(C)C[C@H]1OCc2cnnn2CCCC(=O)N([C@H](C)CO)C[C@H]1C	-2	-10	8.5
CC(=O)N1Cc2cc(C(=O)NCC(F)(F)F)nc(-c3cccc(-c4cncnc4)c3)c2[C@@H]1CCO	-3	-3	-0.5
COc1ccccc1CNC(=O)C[C@@H]1CC[C@H]2[C@H](COc3ccc(NC(=O)Nc4ccc(F)c(F)c4)cc3C(=O)N2C)O1	1	-2	2.8
COc1cccc(S(=O)(=O)N(C)C[C@@H]2OCc3ccccc3-c3c(n(C)c4ccccc34)C(=O)N([C@@H](C)CO)C[C@@H]2C)c1	u	x	x
CN1C(=O)c2cc(NC(=O)c3cccs3)ccc2OC[C@H]2O[C@H](CC(=O)O)CC[C@@H]21	0	1	-0.8
CN1C(=O)c2cc(NC(=O)c3cccs3)ccc2OC[C@H]2O[C@@H](CC(=O)NCC3CC3)CC[C@H]21	2	1	1.2
CCN1CC(=O)N2[C@@H](CO)[C@H](c3ccc(-c4cccnc4)cc3)[C@@H]2C1	10	7	3.6
O=C(C[C@@H]1C[C@@H]2c3cc(NC(=O)Nc4ccccc4F)ccc3O[C@@H]2[C@@H](CO)O1)NCc1ccccn1	1	-3	4.2
COc1ccc2c3c([nH]c2c1)[C@H](CO)N(C(=O)C1CCOCC1)CC31CCN(S(C)(=O)=O)CC1	4	-1	5.0
CN1C(=O)c2cc(NC(=O)c3cccs3)ccc2OC[C@@H]2O[C@@H](CC(=O)O)CC[C@H]21	0	-5	4.6
CO[C@@H]1CN(C)C(=O)c2cc(NS(=O)(=O)c3cccc(F)c3)ccc2OC[C@@H](C)N(Cc2cc(F)ccc2F)C[C@H]1C	u	x	x
CCC(=O)N1CCCCN2[C@H](CO)[C@H](c3ccc(-c4cccc(C#N)c4)cc3)[C@H]2C1	6	3	2.9
O=C(C[C@@H]1CC[C@H]2[C@@H](COC[C@H](O)CN2C(=O)Nc2cccc(F)c2)O1)NCc1ccccc1F	5	-4	8.3
CO[C@@H]1CN(C)C(=O)c2ccc(NC(=O)CN(C)C)cc2OC[C@@H](C)N(C(=O)C2CCCCC2)C[C@H]1C	-3	-4	0.2
N#C[C@@H]1[C@H](c2ccccc2-c2ccccc2)[C@H](CO)N1C(=O)Cc1ccncc1	9	1	7.5
Cc1noc(C)c1NC(=O)N(C)C[C@H]1OCc2ccccc2-c2c(n(C)c3ccccc23)C(=O)N([C@@H](C)CO)C[C@H]1C	-4	-11	7.5
COc1ccccc1CNC(=O)C[C@@H]1CC[C@H]2[C@@H](COc3ccc(NC(C)=O)cc3C(=O)N2C)O1	-3	1	-4.2
O=C(NCC1CC1)[C@@H]1[C@@H](CO)[C@@H]2Cn3c(ccc(-c4ccccc4)c3=O)[C@H]1N2C(=O)C1CC1	2	4	-2.7
C[C@H](CO)N1C[C@H](C)[C@H](CN(C)C(=O)Nc2ccc(C(F)(F)F)cc2)Oc2ccc(NC(=O)Cc3cn(C)c4ccccc34)cc2C1=O	-2	-8	6.1
CCC(=O)N1[C@H](CNC(=O)CN(C)C)[C@H](c2ccc(C3=CCCC3)cc2)[C@@H]1CO	-1	0	-1.4
Cc1noc(C)c1NC(=O)N(C)C[C@H]1Oc2c(cccc2N(C)C)C(=O)N([C@@H](C)CO)C[C@@H]1C	0	0	-0.6
C[C@H](CO)N1C[C@H](C)[C@@H](CN(C)C(=O)C2CCCCC2)OCCCC[C@H](C)Oc2ccc(NC(=O)c3ccncc3)cc2C1=O	4	1	2.8
CO[C@H]1CN(C)C(=O)c2ccc(NC(=O)Nc3cccc(Cl)c3)cc2OC[C@H](C)NC[C@H]1C	u	x	x
O=C(C[C@@H]1CC[C@@H](NC(=O)CC2CC2)[C@@H](CO)O1)NCC(F)(F)F	2	0	1.3
O=C(CN1CCOCC1)N[C@@H]1CC[C@@H](CCNC(=O)Nc2cc(F)ccc2F)O[C@H]1CO	11	6	4.4
CCNC(=O)Nc1ccc2c(c1)C(=O)N(C)[C@@H]1CC[C@H](CC(=O)NCc3ccccc3F)O[C@H]1CO2	0	6	-6.3
CS(=O)(=O)N1[C@@H]2c3cccc(=O)n3C[C@H]1[C@H](CO)[C@H]2C(=O)NCc1ccc(F)cc1	6	4	2.8
O=C(C1CCC1)N1C[C@@H]2[C@H](c3ccccc31)[C@@H](CO)N2C(=O)Nc1cccc(F)c1	-3	-3	-0.2
COc1ccc(NC(=O)Nc2ccc3c(c2)[C@H]2C[C@@H](CC(=O)NCc4ccccn4)O[C@H](CO)[C@H]2O3)cc1	-3	-5	1.2
CCC(=O)N1CC2(C1)CN(Cc1ccccc1Cl)[C@@H](CO)c1[nH]c3cc(OC)ccc3c12	u	x	x
CN(C)CCCNC(=O)C[C@H]1CC[C@H]2[C@H](COc3ccc(NS(C)(=O)=O)cc3C(=O)N2C)O1	-1	-5	4.2
OC[C@H]1[C@@H](c2ccc(C3=CCCC3)cc2)[C@@H]2CN(Cc3ccncc3)CCCCN12	9	16	-7.7
C[C@@H]1CN([C@H](C)CO)C(=O)CCCn2nncc2CO[C@H]1CN(C)S(=O)(=O)c1ccc2ccccc2c1	-3	-6	3.1
C[C@H]1CN([C@@H](C)CO)C(=O)c2cccc(NC(=O)C3CCCCC3)c2O[C@H]1CN(C)Cc1ccc(Cl)c(Cl)c1	2	0	1.9

At a glance, 4 of the compounds above.
SMILES	DUX4 txn inh	DUX4 txn inh difference	DUX4 txn inh control
COc1ccc(NC(=O)Nc2ccc3c(c2)[C@H]2C[C@@H](CC(=O)NCc4ccccn4)O[C@H](CO)[C@H]2O3)cc1	-3	-5	1.2
CCC(=O)N1CC2(C1)CN(Cc1ccccc1Cl)[C@@H](CO)c1[nH]c3cc(OC)ccc3c12	u	x	x
CN(C)CCCNC(=O)C[C@H]1CC[C@H]2[C@H](COc3ccc(NS(C)(=O)=O)cc3C(=O)N2C)O1	-1	-5	4.2
OC[C@H]1[C@@H](c2ccc(C3=CCCC3)cc2)[C@@H]2CN(Cc3ccncc3)CCCCN12	9	16	-7.7

Other compounds
SMILES	DUX4 txn inh	DUX4 txn inh difference	DUX4 txn inh control
COCC(=O)N1CC2(CN(Cc3ccc(Cl)cc3)C2)c2c([nH]c3cc(OC)ccc23)[C@H]1CO	-7	8	-16
COc1ccc2c3c(n(C)c2c1)[C@@H](CO)N(CC1CC1)CC31CN(S(=O)(=O)c2cccs2)C1	u	x	x
O=C(C1CCOCC1)N1CC(=O)N2[C@H](CO)[C@@H](c3ccc(C#Cc4cccc(F)c4)cc3)[C@@H]2C1	u	x	x
O=C(Nc1ccccc1F)N1CCCCN2[C@H](CO)[C@H](c3ccc(C#Cc4cccnc4)cc3)[C@H]2C1	-36*	-26*	-10*
Cc1noc(C)c1NC(=O)N(C)C[C@H]1Oc2ccc(NC(=O)CCN3CCOCC3)cc2CC(=O)N([C@@H](C)CO)C[C@H]1C	1	1	0.4
C[C@@H]1CCCCO[C@@H](CN(C)C(=O)C2CCCCC2)[C@@H](C)CN([C@@H](C)CO)C(=O)c2cc(NS(=O)(=O)c3ccccc3)ccc2O1	1	-3	3.9
C[C@H](CO)N1C[C@H](C)[C@H](CN(C)C(=O)Nc2ccnc(N3CCOCC3)c2)OCc2cnnn2CCCC1=O	2	6	-3.9
CCNC(=O)C[C@@H]1CC[C@@H]2[C@H](COC[C@@H](O)CN2C(=O)Nc2ccc(C(F)(F)F)cc2)O1	5	7	-1.7
N#C[C@H]1[C@@H](c2ccccc2-c2ccccc2F)[C@H](CO)N1C(=O)c1cccc(F)c1	0	3	-2.9
C[C@H](CO)N1C[C@H](C)[C@H](CN(C)C(=O)Nc2cccc3ccccc23)Oc2ncc(C#CCC3CCCC3)cc2C1=O	4	-4	7.8

Reprinted from the part before: five entries; new compounds follow.
SMILES	DUX4 txn inh	DUX4 txn inh difference	DUX4 txn inh control
C[C@@H]1CCCCO[C@@H](CN(C)C(=O)C2CCCCC2)[C@@H](C)CN([C@@H](C)CO)C(=O)c2cc(NS(=O)(=O)c3ccccc3)ccc2O1	1	-3	3.9
C[C@H](CO)N1C[C@H](C)[C@H](CN(C)C(=O)Nc2ccnc(N3CCOCC3)c2)OCc2cnnn2CCCC1=O	2	6	-3.9
CCNC(=O)C[C@@H]1CC[C@@H]2[C@H](COC[C@@H](O)CN2C(=O)Nc2ccc(C(F)(F)F)cc2)O1	5	7	-1.7
N#C[C@H]1[C@@H](c2ccccc2-c2ccccc2F)[C@H](CO)N1C(=O)c1cccc(F)c1	0	3	-2.9
C[C@H](CO)N1C[C@H](C)[C@H](CN(C)C(=O)Nc2cccc3ccccc23)Oc2ncc(C#CCC3CCCC3)cc2C1=O	4	-4	7.8
CN(C)c1ccc2c(c1)[C@H]1C[C@H](CC(=O)N3CCc4ccccc4C3)O[C@@H](CO)[C@H]1O2	4	6	-1.8
COc1ccc(S(=O)(=O)N2CC[C@H]3[C@@H](CO)N(C)c4ccc(-c5ccccc5F)cc4[C@H]32)cc1	u	x	x
CC(C)NC(=O)N1[C@H](CO)[C@@H](c2ccccc2)C12CN(C(=O)c1ccccn1)C2	8	3	5.5
CO[C@H](CN(C)S(=O)(=O)c1cn(C)cn1)[C@H](C)CN(C(=O)Nc1ccc(F)cc1)[C@@H](C)CO	-2	-6	3.7
CO[C@@H]1CN(C)C(=O)c2cc(NC(=O)C3CC3)ccc2OC[C@H](C)N(C(=O)CN2CCOCC2)C[C@H]1C	11	11	0.0
CN1C(=O)c2cc(NS(C)(=O)=O)ccc2OC[C@@H]2O[C@H](CC(=O)O)CC[C@H]21	0	-5	5.5
CCS(=O)(=O)N1CC2(CN(C(=O)NC(C)C)[C@H](CO)c3c2c2ccc(OC)cc2n3C)C1	19	9	11
Fc1ccc(F)c(CN2[C@@H]3CNC[C@H]2C3c2ccc(-c3ccccc3)cc2)c1 (some centres not stated)	17&8	1&0	16&8.8
CCCN1[C@H](C(=O)NCc2ccccn2)[C@@H](CO)[C@@H]2Cn3c(ccc(C4=CCCC4)c3=O)[C@@H]21	1	-2	2.6
O=S(=O)(Cc1ccccc1)N1CCCCN2[C@H](CO)[C@@H](c3ccc(-c4ccc(F)cc4)cc3)[C@@H]2C1	-32*	-32*	0.1*
C/C=C/c1ccc(C2[C@@H]3CN(S(=O)(=O)c4cccc(OC)c4)C[C@H]2N3)cc1 (some centres not stated)	u	x	x
CN1CCN(C(=O)C[C@H]2CC[C@@H]3[C@H](COC[C@@H](O)CN3Cc3ccc(Oc4ccccc4)cc3)O2)CC1	-6	-8	2.6
O=C(C[C@H]1C[C@@H]2c3cc(NC(=O)NC4CCCC4)ccc3O[C@@H]2[C@@H](CO)O1)NCc1cccc(F)c1	-6	-4	-1.9
CN(C)C(=O)C[C@H]1CC[C@@H]2[C@H](COc3ccc(NC(=O)C4CCCCC4)cc3C(=O)N2C)O1	2	-1	3.2
CN1c2ccc(-c3ccc(F)cc3)cc2[C@H]2[C@H](CCN2C(=O)c2ccccn2)[C@@H]1CO	u	x	x
O=C(C1CC1)N1CC2(C1)[C@H](c1ccccc1)[C@H](CO)N2C(=O)CC1CC1	10	3	7.2
COc1ccc(CNC(=O)C[C@@H]2C=C[C@@H](NC(=O)c3cccc(F)c3)[C@@H](CO)O2)cc1	-6	-5	-0.2
Cc1noc(C)c1S(=O)(=O)N(C)C[C@H]1Oc2ccc(NS(=O)(=O)c3cn(C)cn3)cc2CC(=O)N([C@H](C)CO)C[C@@H]1C	-2	-1	-1.2
CNC[C@H]1Oc2ccc(NS(=O)(=O)c3cn(C)cn3)cc2CC(=O)N([C@@H](C)CO)C[C@@H]1C	2	0	1.8
O=C(C[C@H]1C[C@H]2c3cc(NC(=O)C4CCOCC4)ccc3O[C@H]2[C@H](CO)O1)NCc1ccc2c(c1)OCO2	1	3	-1.7
CCC(=O)N1CC(=O)N2[C@H](CO)[C@H](c3ccc(C#Cc4cccc(F)c4)cc3)[C@@H]2C1	-4	-5	0.8
O=C(c1ccccn1)N1C[C@H]2[C@@H](c3ccccc31)[C@@H](CO)N2C(=O)Cc1ccccc1	-2	-2	0.1
C/C=C/c1cnc2c(c1)C(=O)N([C@H](C)CO)C[C@H](C)[C@H](CN(C)S(=O)(=O)c1cn(C)cn1)O2	8	9	-1.2
CN1c2ccc(-c3ccc(F)cc3)cc2[C@@H]2[C@@H](CCN2C(=O)c2ccncc2)[C@@H]1CO	7	10	-2.6
CCS(=O)(=O)N1[C@H](C#N)[C@@H](c2ccc(C#CCC3CCCC3)cc2)[C@@H]1CO	0	1	-1.2
